From PubChem
MARV entry inh: inhibitors of Marburg virus binding or cell entry; 300,000 compounds, 1.8% hits; Potency, µM (titrated, usually from 37.8 µM), inactives show top-dose activity change, negative = inhibition, usual class: inhibitors; Marburg virus pseudotyped entry inhibition, cell reporter; control for the full effect not named in the record; about a third of the inactives were read at about 46 µM; AID 540276; active = well fitted inhibition curve with a large enough effect; inconclusive = small, poorly fitted or top-dose-only effect, or effect the other way; inactive = flat fitted curve, though single readings scatter; tested in HEK293 cells; about a fifth of its hits are not listed in these tables; note: % is set by controls: 0 for no effect and ±100 for the full control effect; luciferase read-out
RE007 growth inh: less growth of the S. pombe RE007 Vpr strain; AID 651644; Potency, µM (top dose mostly 92.2 µM), without a hit: at the highest dose activity change, negative = less growth; 360,000 compounds, 0.21% hits; S. pombe RE007 Vpr strain, BacTiter-Glo ATP luminescence, 24 h; control for the full effect not named in the record; active = well fitted falling curve with a large enough effect; inconclusive = small, poorly fitted or top-dose-only effect; inactive = no such curve, though single readings can be large or run the other way;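 note: % is set by controls: 0 for no effect and ±100 for the full control effect; nearly all actives have a fitted effect of over 50% in size; the assay follows cell death caused by Vpr and the record does not say whether a fall means rescue or toxicity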
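Fission yeast strain RE007, carrying one chromosomally integrated HIV-1 vpr copy, was seeded at OD 0.01 in PMG+AL medium with 23 nL pinned compound. After 24 h at 30 °C and 99% humidity, viability was read by BacTiter-Glo luminescence.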
Cruzain inh Det: blocks cruzain activity in presence of Triton detergent. AID 1478. purified cruzain, Z-FR-AMC fluorescence, 0.01% Triton. P25779. Potency, µM, for inactives: max response, negative = inhibition, actives largely listed as inhibitors. 200,000 compounds, 0.43% hits;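 note: plate controls were neutral wells for no effect and buffer without enzyme for full effect; nearly all actives have a fitted effect of over 40% in size; top concentration of the series not given in the record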
Target sequence (P25779 123-467 limits assumed): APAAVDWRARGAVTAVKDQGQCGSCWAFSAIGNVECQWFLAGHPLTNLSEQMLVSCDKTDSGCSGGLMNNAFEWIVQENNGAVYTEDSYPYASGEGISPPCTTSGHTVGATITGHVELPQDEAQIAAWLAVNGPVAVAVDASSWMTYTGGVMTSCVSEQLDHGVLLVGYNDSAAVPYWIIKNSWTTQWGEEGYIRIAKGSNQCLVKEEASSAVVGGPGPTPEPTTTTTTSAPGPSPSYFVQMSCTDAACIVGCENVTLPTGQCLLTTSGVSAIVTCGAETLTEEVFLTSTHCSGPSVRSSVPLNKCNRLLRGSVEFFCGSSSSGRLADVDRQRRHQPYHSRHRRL
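Compounds were screened in titration against cruzain (1.5 nM) with 0.01% Triton X-100 to counter colloidal aggregation. Activity was the AMC fluorescence increase over 60 s after adding 2 uM Z-FR-AMC at pH 5.5.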
SARS PLP yeast: inhibitors of SARS-CoV papain-like protease in yeast. S. cerevisiae expressing SARS-CoV PLpro, growth rescue; control for the full effect not named in the record. Potency, µM (highest dose often 32.9 µM), without a hit: at the top dose activity, positive = growth rescue. 330,000 compounds, 0.19% hits; active means well fitted rising curve with a large enough effect; inconclusive means small, poorly fitted or top-dose-only effect; inactive means no such curve, though single readings can be large or run the other way; note: 0% is about no effect; nearly all actives have a fitted effect of over 55% in size; growth read by luminescence after 48 h
Lassa entry inh: blocks Lassa virus binding to or entry into cells; Lassa virus pseudotype entry inhibition, cell reporter; control for the full effect not named in the record; Potency, µM (series often up to 37.9 µM), for the others: top-dose activity change, negative = inhibition, hits mostly inhibitors; 300,000 compounds, 1.2% hits; AID 540256; active means well fitted inhibition curve with a large enough effect; inconclusive means small, poorly fitted or top-dose-only effect, or effect the other way; inactive means flat fitted curve, though single readings scatter; tested in HEK293 cells; note: % is set by controls: 0 for no effect and ±100 for the full control effect; nearly all actives have a fitted effect of over 50% in size; luciferase read-out
StopGo reporter: FMDV 2A StopGo reporter, luciferase signal; human cells with a luciferase reporter of 2A StopGo recoding; control for the full effect not named in the record; Potency, µM (doses to about 57.9 µM), inactives show at the top dose signal change, negative = less light; 410,000 compounds, 1.2% hits; AID 1159524; active = well fitted falling curve with a large enough effect; inconclusive = small, poorly fitted or top-dose-only effect; inactive = no such curve, though single readings can be large or run the other way; tested in HEK293T cells; note: % is set by controls: 0 for no effect and ±100 for the full control effect; nearly all actives have a fitted effect of over 45% in size; luciferase light after 4 h
NS1 function inh: inhibitors of influenza NS1 protein function; S. cerevisiae slowed by influenza A NS1, growth recovery by OD600; 270,000 compounds, 0.4% hits; Potency, µM (doses to about 46.1 µM), for inactives: at the top dose activity, positive = more growth; active means well fitted rising curve with a large enough effect; inconclusive means small, poorly fitted or top-dose-only effect; inactive means no such curve, though single readings can be large or run the other way; note: nearly all actives have a fitted effect of over 50% in size
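Compounds were scored for reversing the slow growth caused by influenza A NS1 in S. cerevisiae, measured by optical density at 600 nm. Assay medium contained 2% galactose at pH 6.0; NS1-free yeast of the same strain were the positive control.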
Cruzain noTriton: blocks cruzain activity in detergent-free assay. Potency, µM, for inactives: max response, negative = inhibition, hits mostly inhibitors. purified cruzain, Z-FR-AMC fluorescence, no detergent. 200,000 compounds, 2.3% hits. AID 1476. P25779;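 note: plate controls were enzyme without inhibitor for no effect and buffer without enzyme for full effect; nearly all actives have a fitted effect of over 40% in size; top concentration of the series not given in the record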
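Detergent-free condition (0.00005% Triton X-100) in acetate buffer pH 5.5 with DTT. 1.5 nM enzyme and compound were pre-mixed 15 min, then 2 uM Z-FR-AMC substrate added; reaction progress from fluorescence change between first and third reads (60 s).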
Starred values were filed as active, the others as inactive; ? = inconclusive; · = not tested or not shown; & = joins results of further samples; [ ] = remark or other dose. Unless noted, calls come from the whole dose curve; as a rule, active = well fitted curve in the direction sought with a large enough effect; inconclusive = small, poorly fitted or top-dose-only effect, or another doubt; inactive = no such curve, though single readings can be large; an effect the other way counts as inactive or inconclusive. Potency is the fitted concentration of half-maximal effect.

SMILES | MARV entry inh | RE007 growth inh | Cruzain inh Det | SARS PLP yeast | Lassa entry inh | StopGo reporter | NS1 function inh | Cruzain noTriton
Cn1c(=O)c2c(nc(SCc3nc(N)nc(N4CCCCC4)n3)n2C)n(C)c1=O | 2% | -20% | -1.4% | ? | ? | -14% | 11% | ?
Cn1c(CC(=O)NNC(=O)c2ccc(Cl)nc2)nc2ccccc21 | -24% | 9% | · | -1% | 13% | -8% | · | ·
CCn1cnc2sc(C)c(C)c2c1=O | · | · | -2.1% | -5% | · | · | 9% | 2%
COc1ccc(CCNC(=O)c2cc(-c3ccc(C)c(C)c3O)n[nH]2)cc1OC | ? | -8% | -5.6% | 9% | ? | -27% | 19% | ?
Cc1ccc(NC(=O)c2c(C)oc3ccc(O)c(CN4CCCCCC4)c23)cc1 | ? | · | -8.6% | · | ? | ? | · | ?
COC(=O)c1ccccc1NC(=O)C1CC(c2ccc(F)cc2)=NO1 (stereo not given) | -1% | 9% | -2.2% | 10% | 10% | -15% | -8% | 15%
Cc1ccc(CN2C(=O)C3(SCC(=O)N3c3ccc(C)c(C)c3)c3ccccc32)cc1 (stereo not given) | · | · | -9.3% | · | ? | ? | · | ?
CC(NS(=O)(=O)c1ccc2c(c1)C(=O)c1cc(S(=O)(=O)NC(C)C(=O)O)ccc1-2)C(=O)O (stereo not given) | -8%[46.1 µM] | -5% | · | 2% | 8% | 17% | 1% | ·
CCCC(=O)Nc1ncnc2c1ncn2[C@@H]1O[C@@H]2COP(=O)(O)O[C@H]2[C@H]1OC(=O)CCC | 7% | -7% | -1.8%&-1.9% | -1% | 12% | 0%&-18%&31%&-1% | -1% | 12%&5%
COc1ccc(C(=O)NCCS(=O)(=O)N2CCOCC2)cc1 | 4% | 4% | · | ? | 1% | -3% | · | ·
CN(C(=O)Cc1c(C(=O)O)n(C)c2ccccc12)c1ccc(Cl)cc1 | ? | 1% | · | 1% | ? | -16% | 2% | ·
Cc1cccc(-n2cccc2)c1C#N | -18% | -6% | -1.0% | -4% | ? | -2% | -3% | 1%
CC(C)(C)Cc1nnc(NC(=O)CN2C(=O)c3ccccc3C2=O)s1 | 12%[46.1 µM] | 1% | · | 0% | 11% | 3% | -7% | ·
CCc1nccn1CCC(=O)N1CCCC(Nc2ccc(F)cc2)C1 (stereo not given) | · | 0% | · | 8% | · | 1% | -10% | ·
O=c1[nH]cnc2c1c(-c1ccccc1)cn2-c1ccc(Br)cc1 | ? | -13% | -11% | -55% | ? | ? | -1% | 24%
CC1CN(C(=O)COC(=O)c2cc(Cl)ccc2[N+](=O)[O-])CC(C)O1 (stereo not given) | -6%[46.1 µM] | 1% | · | 1% | · | 4% | 1% | ·
Cc1ccccc1NC(=S)N(C)Cc1cccs1 | -14%[46.1 µM] | -2% | -0.1% | -10% | 1% | -5% | 6% | -4%
COc1ccc2c(c1)OC1=C(C(=O)CCC1)C2C1=C(O)CCCC1=O (stereo not given) | 3% | -8% | 0.8% | 2% | -10% | ? | 15% | 0%
N#Cc1cccc(NC(=O)COC(=O)c2cccc(N3C(=O)c4ccccc4C3=O)c2)c1 | 2%&4% | 20% | -3.7% | ? | 9%&19% | 2% | 3% | -3%
COc1cc(-c2nnc(SCC(=O)NC(C)C)o2)cc(OC)c1OC | -27%[46.1 µM] | · | -1.6% | · | -13%[46.1 µM] | -22% | · | ?
Cc1c(C)[n+](=O)c2c(n1[O-])C(Br)CCC2Br (stereo not given) | 11%[46.1 µM] | 0% | · | 8% | 7% | 6% | 5% | ·
COc1ccc(N2CCN(Cc3oc(CO)cc(=O)c3O)CC2)cc1 | -1%[46.1 µM] | -6% | 1.6% | 7% | 13% | -4% | 2% | 1%
CCCCN1C(=O)/C(=C2/Sc3ccccc3N2C)S/C1=N\c1ncn[nH]1 | · | -20% | · | -1% | · | -23% | 17% | ·
CC(CN1C(C)CCCC1C)OC(=O)c1ccccc1Cl (stereo not given) | ? | -12% | · | 2% | 16%[46.1 µM] | -5% | · | ·
O=c1cc(O)n(Cc2ccc(F)cc2)c(=O)[nH]1 | · | 9% | · | 2% | · | -4% | 1% | ·
Cc1onc(-c2ccccc2Cl)c1C(=O)OCN1C(=O)c2ccccc2C1=O | -7% | 23% | 1.9% | -2% | -2% | -28% | -56% | -6%
CCCCCn1c(SCCN2CCOCC2)nc2c1c(=O)[nH]c(=O)n2C | 14%[46.1 µM] | -22% | 5.7% | 1% | -2% | -5% | 0% | 1%
CC(C)OC(=O)CCc1nc2ccccc2[nH]c1=O | -16% | -5% | 3.6% | -1% | -2% | 21% | -9% | 1%
CC(/C=N\NC(=O)c1ccc2c(c1)OCO2)c1ccccc1 (stereo not given) | · | -5% | · | -11% | · | 7% | 5% | ·
CCCCN(CCCNC(=O)c1ccc2nc(N3CCOCC3)sc2c1)Cc1ccccc1 | ? | -20% | -4.5% | -4% | ? | -20% | 2% | -8%
Cc1cc(C)cc(NC(=O)CN2CCN(CCN=CC3=C(O)CC(C)(C)CC3=O)CC2)c1 | -15% | -14% | -1.7% | -25% | 18% | -15% | 19% | 1%
CCN(CC)CCn1c2c(c(SCC(=O)Nc3nc(C)cs3)nc1=O)CCC2 | ? | -14% | · | -4% | -15% | 0% | · | ·
CSC1=NCCN1C(=O)c1c(-c2c(F)cccc2Cl)noc1C | -13%[46.1 µM] | 4% | · | -1% | 6% | ? | 3% | ·
CN(C)Cc1c(O)ccc2ccccc12 | · | 13% | · | -1% | · | 9% | -2% | ·
Cc1ccc(SCCC(=O)N2CCN(S(=O)(=O)c3ccccc3)CC2)cc1 | ? | -19% | · | 1% | ? | ? | · | ·
CC(=O)Nc1ccc(NS(=O)(=O)c2ccc(CN3C(=O)c4cccnc4C3=O)cc2)cc1 | 9%[46.1 µM] | -20% | · | 4% | -3%[46.1 µM] | 8% | 0% | ·
O=S(=O)(c1ccccc1)N1CCN(C(=S)NC2CCCC2)CC1 | -14% | 4% | · | 24% | 21% | -9% | 13% | ·
CC1CCc2c(ccc3ccccc23)C1=O (stereo not given) | 17%[46.1 µM] | -20% | · | · | 4%[46.1 µM] | -2% | · | ·
CC(C)CN(C(=O)/C=C/c1nc2ccccc2s1)C1CCS(=O)(=O)C1 (stereo not given) | 10% | 14% | · | 4% | -4%[46.1 µM] | -8% | · | ·
O=C(CSc1nnc(CNc2ccc(F)cc2)n1Cc1ccco1)N1CCOCC1 | -12% | 5% | 1.3% | 6% | 2% | -5% | -3% | 7%
CCC(Cn1nnc2ccccc2c1=O)NC(=O)Nc1ccccc1OC (stereo not given) | ? | · | 1.0% | · | 15%[46.1 µM] | -24% | · | -8%
CCN(CC)c1ccc(S(=O)(=O)N2CCOCC2)cc1NC(=O)COC(=O)/C=C/c1ccc(C)o1 | ? | 5% | · | -3% | ? | -11% | · | ·
Cc1ccc(C)c(NC(=O)CSc2nc(=O)n(CCN3CCOCC3)c3c2CCC3)c1 | · | · | -1.5% | · | 5%[46.1 µM] | -2% | · | 11%
O=C(COc1ccccc1)NCC(c1cccs1)N1CCOCC1 (stereo not given) | -1% | 10% | -2.8% | 7% | 6% | · | -2% | 2%
COc1ccc(NC(=O)C23CC4CC(C2)CC(c2ccccc2)(C4)C3)c(OC)c1 | -28% | · | -4.5% | -7% | -10% | ? | -5% | 6%
COc1cc(OC)c(CN2CCc3c([nH]c4ccccc34)C2)cc1Br | ? | -17% | · | -2% | ? | -15% | 2% | ·
CCN(CC)C(=O)Nc1ccccc1C | 19% | -12% | -0.9% | 4% | 9% | -23% | 4% | -22%
Cc1c(C(=O)NCc2cccs2)oc2ccccc12 | ? | -16% | 1.4% | -6% | -24% | 23% | -34% | -12%
Cc1cc2oc(=O)cc(-c3cc4ccccc4o3)c2cc1O | · | -18% | · | 8% | · | -14% | -16% | ·
O=C(c1ccccc1Cl)N1CCn2c1nc1ccccc12 | 11%[46.1 µM] | 10% | · | 14% | 8% | -14% | -1% | ·
COc1ccc(CN2C(=O)NC(C)(c3ccc(C)cc3)C2=O)cc1F (stereo not given) | -24%[46.1 µM] | 1% | · | 5% | -7%[46.1 µM] | -20% | 0% | ·
CCOc1ccccc1COC(=O)c1cccc(-n2cnnn2)c1 | -22% | 19% | -7.7% | -4% | -2% | -2% | -18% | 5%
COc1ccc(C2C3=C(CCCC3=O)Nc3n[nH]c(C)c32)cc1OC (stereo not given) | -2%[46.1 µM] | 1% | · | 0% | 2% | 2% | 7% | ·
COc1cccc(N2CC(=O)N(c3cccc(OC)c3)CC2=O)c1 | · | -5% | · | 0% | · | -10% | 0% | ·
CCCn1c(-c2cccs2)nc2ccccc21 | 12%[46.1 µM] | -20% | -2.2% | -6% | 59% | -4% | -122% | 1%
Cc1oc2ncn(C)c(=O)c2c1C(=O)Nc1ccccn1 | -3%[46.1 µM] | · | 1.1% | · | 7%[46.1 µM] | 2% | · | -1%
CC(=O)N1CCCc2cc(S(=O)(=O)N3CCC(C(=O)NC4CCC(C)CC4)CC3)ccc21 (stereo not given) | · | · | -0.5% | · | -7%[46.1 µM] | -8% | · | ?
COc1ccc(N2C(=O)C3CCCN3C2c2ccc(C)cc2)cc1 (stereo not given) | 1% | 1% | -4.1% | 7% | · | -19% | 3% | 6%
CCc1nc(SCC(=O)N2CCC(Cc3ccccc3)CC2)c2c(=O)n(C)c(=O)n(C)c2n1 | · | · | 0.4% | 15% | · | · | 20% | 4%
O=C(CC1C(=O)NCCN1Cc1c(F)cccc1Cl)NCCCn1cccn1 (stereo not given) | · | 8% | · | -1% | · | -5% | 1% | ·

Other records follow:
SMILES | MARV entry inh | RE007 growth inh | Cruzain inh Det | SARS PLP yeast | Lassa entry inh | StopGo reporter | NS1 function inh | Cruzain noTriton
CS(=O)(=O)Cc1ccc(C(=O)Nc2cccc(-c3nc4ccccc4[nH]3)c2)cc1 | 11% | 1% | · | -1% | 16% | 14% | -17% | ·
CC(C)(C)n1nc2c(c1NC(=O)Cc1ccc(F)cc1)CSC2 | · | 1% | -4.3% | 17% | · | -10% | 10% | -2%
O=c1[nH]cnc2nc(-c3ccc(N(CCCl)CCCl)cc3)[nH]c12 | ? | -6% | · | · | ? | 22% | · | ·
C=CCNC(=O)CCCc1ccccc1 | 12% | 13% | 0.3% | 6% | 13% | 35%[activator] | -3% | -9%
Clc1ccc(C2=NNC(=NCc3ccccc3)SC2)cc1 | ? | -3% | · | -2% | 20% | 33%[activator] | · | ·
